Compound activity from PubChem.
KCNQ2 pot – potentiators of rat KCNQ2 potassium channel. Potassium voltage-gated channel subfamily KQT member 2 (Rattus norvegicus), O88943. CHO-K1 KCNQ2, FluxOR thallium flux fluorescence; hits give high values. B-score at 10 µM. hit rate 0.54% among 310,000. AID 2239, 2010;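 active = fluorescence ratio B-score at least 3 SD of library B-scores, with initial fluorescence B-score within 3 SD, cut at about 5.3 in these data; same plate scores as AID 2156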;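 note: B-score of peak minus minimum over baseline fluorescence ratio after K+ and Tl+ stimulus; positive B-score means potentiation of KCNQ2 with more thallium influx and brighter signal; only the inactives scoring about 0 or higher are listed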
Target sequence (O88943 whole entry, looked up): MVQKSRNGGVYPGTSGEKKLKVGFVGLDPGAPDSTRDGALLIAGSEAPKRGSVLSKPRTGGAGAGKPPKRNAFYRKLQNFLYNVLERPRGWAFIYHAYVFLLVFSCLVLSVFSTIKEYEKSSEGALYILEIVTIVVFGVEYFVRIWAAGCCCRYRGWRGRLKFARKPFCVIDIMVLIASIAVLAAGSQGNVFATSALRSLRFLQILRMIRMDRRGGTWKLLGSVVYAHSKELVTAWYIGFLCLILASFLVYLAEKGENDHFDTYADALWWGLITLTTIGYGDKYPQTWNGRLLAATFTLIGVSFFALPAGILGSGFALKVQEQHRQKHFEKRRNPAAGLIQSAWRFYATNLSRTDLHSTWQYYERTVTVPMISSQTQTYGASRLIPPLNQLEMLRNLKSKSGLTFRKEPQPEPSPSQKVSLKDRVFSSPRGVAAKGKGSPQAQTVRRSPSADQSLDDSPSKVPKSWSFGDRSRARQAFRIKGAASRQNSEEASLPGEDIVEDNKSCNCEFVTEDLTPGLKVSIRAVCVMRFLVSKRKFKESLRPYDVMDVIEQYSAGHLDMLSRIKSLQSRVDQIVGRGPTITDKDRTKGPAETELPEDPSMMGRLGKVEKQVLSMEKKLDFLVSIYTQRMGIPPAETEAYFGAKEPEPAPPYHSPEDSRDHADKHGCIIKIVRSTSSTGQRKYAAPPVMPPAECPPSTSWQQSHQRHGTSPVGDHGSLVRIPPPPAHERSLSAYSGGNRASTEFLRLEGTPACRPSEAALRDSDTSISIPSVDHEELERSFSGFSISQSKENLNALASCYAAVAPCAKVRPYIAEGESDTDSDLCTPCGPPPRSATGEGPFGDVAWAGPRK
KCNQ2 pot baseline – recorded beside KCNQ2 pot, whose call it bears; B-score; compound at 10 µM; measured here: initial fluorescence intensity artifact check;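 brightness before thallium and not channel activity; 0 = typical well and far values either way flag optical interference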
* hit, by the source's call.

Preview (5 entries):
Order of results: KCNQ2 pot	KCNQ2 pot baseline
1: Cc1ccc(C(=O)NCCc2ccncc2)cc1
    2.1	-0.47
2: Cc1ccc2[nH]cc(C(=O)CN3CCOCC3)c2c1
    0.23	1.4
3: O=c1[nH]c2ccc(NS(=O)(=O)c3ccc(Cl)cc3)cc2[nH]1
    1.1	-1.3
4: CC(C)(C)NCc1cc(Br)ccc1OCc1cccs1
    0.73	-1.2
5: COc1ccc(OC)c(S(=O)(=O)n2c([N+](=O)[O-])cnc2C)c1
    1.9	-1.1

The list itself, repeating the preview:
Order of results: KCNQ2 pot	KCNQ2 pot baseline
1: Cc1ccc(C(=O)NCCc2ccncc2)cc1
    2.1	-0.47
2: Cc1ccc2[nH]cc(C(=O)CN3CCOCC3)c2c1
    0.23	1.4
3: O=c1[nH]c2ccc(NS(=O)(=O)c3ccc(Cl)cc3)cc2[nH]1
    1.1	-1.3
4: CC(C)(C)NCc1cc(Br)ccc1OCc1cccs1
    0.73	-1.2
5: COc1ccc(OC)c(S(=O)(=O)n2c([N+](=O)[O-])cnc2C)c1
    1.9	-1.1
6: Cc1cc(NC(=O)CSc2nnc(-c3ccco3)o2)no1
    0.15	-0.04
7: CCc1ccc(CNC(=O)C2CCN(S(=O)(=O)N3CC(C)CC(C)C3)CC2)cc1 (stereo not drawn)
    2.4	-0.65
8: C=CCN(c1ccccc1)S(=O)(=O)c1cccc(C(=O)Oc2ccc3c(C)cc(=O)oc3c2)c1
    0.01	1.3
9: CCCC(=O)NCCCc1nc2ccccc2n1C
    0.72	0.76
10: O=S(=O)(NCc1ccccc1)c1ccc(S(=O)(=O)N2CCCC2)cc1
    0.22	0.84
11: O=[N+]([O-])c1cccc(S(=O)(=O)Nc2nc3ccccc3nc2Nc2cccc(S(=O)(=O)N3CCCCC3)c2)c1
    8.2*	-0.7*
12: OC(CN1CCNCC1)Cn1c2ccccc2c2ccccc21 (stereo not drawn)
    0.04	-1.2
13: CCSc1ccccc1C(=O)Nc1ccc(S(=O)(=O)NC(C)=O)cc1
    0.69	-0.45
14: Cn1nc(C(F)(F)F)c(C#N)c1N1CCN(c2cccc(C(F)(F)F)c2)CC1
    0.41	-1.6
15: COc1cccc(CNC(=O)CCS(=O)(=O)c2cccs2)c1
    0.42	-2.5
16: COc1cc(C(=O)Nc2ccc(C)cc2)c(-n2cnnn2)cc1OC
    0.47	0.01
17: O=C(Cc1coc2ccc3ccccc3c12)NCc1ccccc1
    0.14	0.57
18: CCOC(=O)c1ccc(NC(=O)CN2CCN(c3ccccc3)CC2)cc1
    0.14	0.01
19: CC(=O)NCCc1nc2cc(NC(=O)COc3cccc(C)c3)ccc2n1C
    0.92	-0.35
20: CCOCCCNC(=O)C(Cc1ccccc1)NS(=O)(=O)c1ccc2c(c1)c(=O)n(C)c(=O)n2C (stereo not drawn)
    0.98	0.29
21: CC(C)C(=O)c1cc2c(cc1NC(=O)Nc1cccc3ccccc13)OCCO2
    0.15	-1
22: CCn1c(=S)sc2c(=O)n(CC(=O)Nc3ccc(OC)cc3)c(C)nc21
    0.49	0.26
23: O=C(N=C1SC2CS(=O)(=O)CC2N1c1cc(Cl)ccc1Cl)C1CCCO1 (stereo not drawn)
    0.39	-0.02
24: COc1ccc(C(=O)N2CCCC(CCC(=O)NCc3ccc(F)c(F)c3)C2)cc1F (stereo not drawn)
    0.62	-0.05
25: Cc1cc(NC(=O)CSCC(=O)N(C)Cc2c(F)cccc2Cl)no1
    2.1	0.01
26: O=C1CCCCC1C(O)c1ccc(Cl)cc1 (stereo not drawn)
    0.3	-1.4
27: CCn1c2ccccc2c2nnc(SCC(=O)Nc3c(C)n(C)n(-c4ccccc4)c3=O)nc21
    0.68	-1.3
28: O=C(Cc1ccccc1)Nc1nc2ccccc2s1
    0.01	0.88
29: NC(=O)CN1N=C(c2cc(Cl)sc2Cl)CSC1=O
    0.92	-1.1
30: O=C(NN1C(=O)c2ccccc2NC1c1ccc([N+](=O)[O-])o1)c1ccccc1 (stereo not drawn)
    0.14	0.21
31: CCOc1ccccc1NC(=O)Cn1c(=O)n(CCC(=O)NC2CCCC2)c(=O)c2ccccc21
    0.11	-0.02
32: C=CCSc1nc(N)c(C#N)c(-c2ccccc2)c1C#N
    0.11	-1.6
33: Cc1ccc(NC(=O)CN(c2ccc3c(c2)OCO3)S(=O)(=O)c2c(C)n[nH]c2C)cc1
    0.1	-0.93
34: COc1ccc(-c2nnn(Cc3nc(N)nc(N4CCCCC4)n3)n2)cc1
    0.62	-0.24
35: Cn1c(=O)c2[nH]c(Nc3ccccc3)nc2n(C)c1=O
    2	0.74
36: FC(F)Oc1ccc(NC(=S)NC2CCSc3ccccc32)cc1 (stereo not drawn)
    1	0.44
37: CCN(CC)C(=O)c1c(Cl)nc(C)c([N+](=O)[O-])c1C
    0.52	-0.6
38: CC(C(=O)NC1CCCCCC1)n1cc([N+](=O)[O-])cn1 (stereo not drawn)
    0.29	0.17
39: COC(=O)c1c(C(=O)OC)c2ccccn2c1C(=O)c1ccc([N+](=O)[O-])cc1
    1.3	0.54
40: O=S(=O)(Cc1nnnn1-c1ccccc1)c1ccc(F)cc1
    0.12	1.9
41: O=C(NCc1cccc(C(F)(F)F)c1)C1CC(c2ccc(C(F)(F)F)cc2)=NO1 (stereo not drawn)
    2.5	-1.7
42: COc1cc(/C=C/C(=O)O)cc2c1OCCO2
    0.86	1
43: O=C(CSc1nc2ccccc2n1CCc1ccccc1)NC1CC1
    0.09	-1.8
44: O=CN1CCN(C(=O)Cc2ccc([N+](=O)[O-])cc2)CC1
    0.73	-1.5
45: Cc1noc(C)c1CS(=O)(=O)c1ccc([N+](=O)[O-])cc1
    0.73	-1.3
46: NC(=O)c1c(NC(=O)COC(=O)c2ccc(S(=O)(=O)Nc3ccccc3)cc2)sc2c1CCCC2
    0.63	-0.29
47: Cc1ccccc1NS(=O)(=O)c1ccc(-c2ccc(=O)[nH]n2)o1
    0.81	2.3
48: CCN1CCCC1CN=Cc1c(O)n(-c2ccccc2)c(=O)c2ccccc12 (stereo not drawn)
    0.51	-0.42
49: COc1cccc(S(=O)(=O)Nc2noc3ccccc23)c1
    0.37	-1.4
50: CCOC(=O)c1c(-c2ccccc2)csc1NC(=O)c1cc2ccccc2oc1=O
    0.54	0.46
51: Cc1c([N+](=O)[O-])c(C(=O)N2CCCC2)nn1C
    1.1	0.85
52: Cc1cc(C)c(C(=O)CSc2n[nH]c(=O)n2C2CC2)cc1C
    0.91	-0.06
53: O=C(NCCc1ccc(C(F)(F)F)cc1)C1CCC(=O)N(C2CC2)C1 (stereo not drawn)
    0.2	-0.82
54: Cc1cc(Nc2ccccc2)nn1C(=O)c1ccc(Br)cc1
    0.9	-0.14
55: Cc1nn(-c2ccc(F)cc2)c2nc(N)c(C#N)c(-c3cccs3)c12
    0.43	-1.4
56: O=C(NCc1ccccn1)C(=O)NCc1ccccn1
    1.4	-2
57: O=C(N/N=C/c1c[nH]c2ccc(Br)cc12)c1ccn(Cc2ccc(Cl)cc2Cl)n1
    0.85	0.08
58: COc1ccc(CNC(=O)CN2C(=O)COc3ccc(S(=O)(=O)N4CCCC4)cc32)cc1
    2.5	-1.2
59: O=C1CC(SC(=Nc2ccccc2)Nc2ccccc2)C(=O)N1c1cccc2ccccc12 (stereo not drawn)
    1.6	0.16
60: N#CCCN(NC1=NS(=O)(=O)c2ccccc21)C(=O)c1ccccc1Br
    0.44	-0.44

Taken from above:
Under KCNQ2 pot, CCN1CCCC1CN=Cc1c(O)n(-c2ccccc2)c(=O)c2ccccc12 (stereo not drawn) has 0.51
Under KCNQ2 pot baseline, Cc1nn(-c2ccc(F)cc2)c2nc(N)c(C#N)c(-c3cccs3)c12 has -1.4
Under KCNQ2 pot, O=C1CC(SC(=Nc2ccccc2)Nc2ccccc2)C(=O)N1c1cccc2ccccc12 (stereo not drawn) has 1.6
Under KCNQ2 pot, CCOC(=O)c1c(-c2ccccc2)csc1NC(=O)c1cc2ccccc2oc1=O has 0.54
Under KCNQ2 pot, O=C(CSc1nc2ccccc2n1CCc1ccccc1)NC1CC1 has 0.09

Carrying on.
Order of results: KCNQ2 pot	KCNQ2 pot baseline
61: Cc1cc(C)c2c(c1)c(C)cc1nnc(SCC(=O)NCc3ccco3)n12
    0.43	-0.08
62: CC1CC(C)CN(Cc2nc3c(c(=O)n(C)c(=O)n3C)n2CCN2CCOCC2)C1 (stereo not drawn)
    0.45	-1.1
63: CN(CC1CCCN(CCc2ccc(Cl)cc2)C1)C(=O)c1ccoc1 (stereo not drawn)
    1.5	-1.4
64: CCN1CCN(C(=O)CNC(=O)c2nn(-c3ccc(OC)cc3)c(=O)c3ccccc23)CC1
    0.26	0.02
65: Cc1cc(-c2nnc(SCC(=O)Nc3cccc(C)c3C)n2N)n[nH]1
    1	-0.62
66: CN(CC(=O)Nc1ccc(C(N)=O)cc1)CC(=O)Nc1ccccc1Br
    0.62	-0.79
67: Cc1ccc(-n2c(Cn3nc(C(F)F)cc3C(F)F)n[nH]c2=S)cc1
    0.47	1.2
68: CC(NC(=O)COC(=O)Cc1ccccc1[N+](=O)[O-])c1ccccc1 (stereo not drawn)
    0.89	-0.66
69: CCN1CCN(CC(=O)N/N=C/c2ccc(F)cc2F)CC1
    0.91	-0.01
70: CC(C)(C)c1cnnn1-c1cccc([N+](=O)[O-])c1
    0.03	-0.01
71: COc1ccc2oc(=N)c(C(=O)Nc3ccccc3Cl)cc2c1
    0.09	-0.32
72: O=[N+]([O-])c1c(NCCCO)cc(N2CCCCCC2)c2nonc12
    1.2	0.5
73: COC(=O)CNC(=O)C1Cc2ccccc2CN1S(=O)(=O)c1ccc(F)cc1 (stereo not drawn)
    0.28	0.62
74: CCC(CO)Nc1ncnc2c1cnn2-c1ccc(OC)cc1 (stereo not drawn)
    3.5	1.5
75: Cn1c(CNc2cccc(Cl)c2)nnc1SCC#N
    0.09	-0.92
76: O=C(CSc1nnc(-c2ccccc2)o1)OCc1ccccc1
    2.4	1.6
77: O=[N+]([O-])c1ccccc1/C=N/n1c(-c2ccccc2)n[nH]c1=S
    0.53	0.72
78: CCCCN1CC2=C(C1=O)C(c1ccc(O)cc1)NC(=O)N2C (stereo not drawn)
    0.06	0.69
79: Cc1c(F)cccc1NS(=O)(=O)c1ccc2c(c1)c(C)cc(=O)n2C
    0.77	-0.14
80: CCOC(=O)CSCC(=O)N1CCC(Cc2ccccc2)CC1
    0.11	2.4
81: CCOC(=O)N1CCC(N2C(=O)c3ccccc3C2Nc2cc(OC)c(OC)c(OC)c2)CC1 (stereo not drawn)
    0.06	-0.72
82: CCCCN1CC[C@H]2C=CC[C@@H](C(=O)N3CCOCC3)[C@H]2C1=O
    0.8	-1.5
83: Cc1ccc2[nH]c(=O)c(NC(N)=S)nc2c1
    0.96	-0.11
84: O=C(Cc1cccs1)Nc1nnc(Cc2ccccc2)s1
    0.62	0.91
85: COc1ccc(C2=Nn3c(nnc3-c3ccccc3)SC2)cc1OC
    1.3	1.2
86: CCNc1nc2c(c(=O)n(C)c(=O)n2C)n1CCCc1ccccc1
    1.4	-0.37
87: COC(=O)c1ccccc1NC(=O)c1ccc(NS(C)(=O)=O)cc1
    0.41	1.7
88: Cc1cc(Cl)ccc1NC(=S)Nc1cccnc1
    0.84	-0.11
89: CC(C)CC[n+]1ccn(-c2nc3ccccc3nc2[N-]S(=O)(=O)c2ccccc2)c1
    0.25	1.1
90: Cc1ccc(C(=O)NNC2=NCCC2)cc1
    1.5	0.38
91: O=C(O)c1ccc(CSc2nnc(-c3ccccc3Cl)n2-c2ccccc2)cc1
    0.37	0.85
92: FC(F)(F)c1cnc2c(c1)[nH]c(=S)n2-c1ccc(Cl)cc1
    5.1	-0.41
93: COc1ccc(NC(=O)CN(C)C(=O)c2ccccc2SCC(=O)N2CCCC2)cc1
    1	-0.16
94: CC(C)C[C@H]1CNC(=O)C(=O)N1C[C@H](C)NC(=O)Cc1ccccc1
    0.2	-0.91
95: Cc1ccc(S(=O)(=O)N2CCC(C(=O)N3CC(C)OC(C)C3)CC2)cc1 (stereo not drawn)
    1.4	-0.42
96: O=C(COC(=O)c1cccs1)NCCCc1ccccc1
    1.1	1.5
97: O=C(c1ccc(Br)cc1)N1CCC(C(=O)N2CCN(c3ccccc3)CC2)CC1
    1.5	-0.56
98: Cc1noc(NS(=O)(=O)c2ccc(N/C=C\C(=O)c3ccccc3)cc2)c1C
    0.85	0.71
99: COC(=O)c1c(C)[nH]c(C(=O)N2CCN(c3ccc(OC)cc3)CC2)c1C
    1.1	-2.4
100: Cc1c([N+](=O)[O-])c(C(=O)NC2CCCCC2)nn1C
    0.17	-1.4
101: CN1CCc2c(sc(NC(=O)c3ccco3)c2C(N)=O)C1
    0.48	1.1
102: CC[n+]1c(/C=C(\C)SC)sc2ccccc21
    0.58	0.03
103: Cn1nnc2cc(C(=O)NCc3ccco3)ccc21
    0.32	-0.83
104: COc1ccc(NC(=O)CSc2c3c(nc4ccccc24)CCCC3)c(OC)c1
    0.2	-0.42
105: Cc1cc(C)c(S(=O)(=O)C(C)C)c(=O)[nH]1
    0.18	-1.2
106: COc1cc(N)ccc1Cc1ccc(N)cc1OC
    0.44	0.44
107: Fc1cccc(Cl)c1COc1ccc(-c2nnco2)cc1
    1.6	2.9
108: CCS(=O)(=O)NCc1ccc2[nH]c3c(c2c1)CCCC3
    0.01	1.9
109: Cc1cccc(C)c1N=C1C(=O)Nc2ccccc21
    0.65	-0.02
110: COc1ccc(OC)c(N/C(C)=C/C(=O)c2ccncc2)c1
    0.08	-1.5
111: Cc1nn(Cc2c(F)c(F)c(F)c(F)c2F)c(C)c1NC(=O)c1ccnn1C
    2.2	-1.8
112: O=C(Nc1ccc(S(=O)(=O)N2CCOCC2)cc1)c1ccc(F)cc1
    0.99	-0.67
113: Cc1ccc(OCC(=O)NCCc2nc3ccccc3[nH]2)c(C)c1
    0.03	0.38
114: COc1cccc(NC(=O)c2ccc3c(SCC(=O)O)c4c(nc3c2)CCCC4)c1
    0.02	0.49
115: C=CCN(C(=O)Nc1ccc(OC)cc1)c1nnc(-c2ccncc2)s1
    2.8	-3.3
116: CCO[C@@H]1OC(C(=O)N2CCN(C)CC2)=C[C@H](C2CCCCC2)[C@H]1CCCO
    0.46	1.5

These rows are one share of the data. The share of hits here may be higher or lower than overall.
